Screens: PubChem, National Center for Advancing Translational Sciences (NCATS)
gsp ag = qHTS for Agonist of gsp, the Etiologic Mutation Responsible for Fibrous Dysplasia/McCune-Albright Syndrome: qHTS. Potency, µM (doses to about 76.9 µM), for the others: top-dose activation (cAMP increase), most hits filed as activators. gsp mutant cells, cAMP HTRF, 30 min; control for the full effect not named in the record. AID 624287, 2012. hit rate 0.13% among 340,000; active = well fitted activation curve with a large enough effect; inconclusive = small, poorly fitted or top-dose-only effect, or another doubt; inactive = no such curve, though single readings can be large or run the other way; cell line not stated here;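 note: phosphodiesterase inhibitor Ro 20-1724 added with compounds to block cAMP breakdown; potency is the fitted concentration of half-maximal effect; nearly all actives have a fitted effect of over 60% in size; about a fifth of the inactives were tested at one dose only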
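Cells in DMEM/10% FBS with G418 were pretreated with compounds in DMSO plus […] (300 uM stock) for 30 min at 37C. cAMP was measured by HTRF (cAMP-d2 plus anti-cAMP antibody-K) after 30 min at room temperature.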
ClpP mod = qHTS Assay for Activators of ClpP | ATP-dependent Clp protease proteolytic subunit (Bacillus subtilis (strain 168)), P80244 | purified B. subtilis ClpP, FRET peptide cleavage, 20 min | Potency, µM (top dose mostly 57.5 µM), for the others: at the highest dose activity change, negative = active | hit rate 1.9% among 340,000 | AID 651965, 2013; active = well fitted falling curve with a large enough effect; inconclusive = small, poorly fitted or top-dose-only effect; inactive = no such curve, though single readings can be large or run the other way; note: potency is the fitted concentration of half-maximal effect; the source files actives as falling curves though it sought activators and does not explain the sign; nearly all actives have a fitted effect of over 65% in size; many hits overshoot -100%
Target sequence (P80244 whole entry, looked up): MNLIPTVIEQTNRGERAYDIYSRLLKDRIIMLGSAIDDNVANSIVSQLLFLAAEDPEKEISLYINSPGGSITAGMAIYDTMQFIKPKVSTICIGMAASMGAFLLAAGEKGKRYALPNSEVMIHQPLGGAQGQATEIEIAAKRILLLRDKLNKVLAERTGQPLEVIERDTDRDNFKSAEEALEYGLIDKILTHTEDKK
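ClpP 10 microg/mL final, pH 8 Tris/KCl buffer with BSA, glycerol, Tween-20; compound pinned in; FRET-FV substrate; RT 20 min; Ex320/Em430; ΔFRET vs ADEP 5.8 microM, DMSO, no enzyme.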
CtBP-E1A blk = qHTS Assay for Inhibitors of the CtBP/E1A Interaction. hit rate 0.49% among 340,000. activity change, % (no concentration beside the values). AlphaScreen GST-E1A/His-CtBP binding, 1536-well; active compounds read low; control for the full effect not named in the record. AID 651724, 2012. CtBP / adenovirus E1A interaction (AlphaScreen); in the data active means activity change below about -65%; inconclusive means about -30% to -65%; inactive means above about -30%; note: % is set by controls: 0 for no effect and ±100 for the full control effect
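In 5 uL wells, 23 nL compound meets equimolar GST-E1A and His-CtBP (5X stock 125 nM each) for 2 h, 37 °C. Beads (5X, 50 ug/mL) then 1 h, 37 °C, dark.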
gsp antagonist = qHTS for Antagonists of gsp, the Etiologic Mutation Responsible for Fibrous Dysplasia/McCune-Albright Syndrome: qHTS | gsp-mutant cells, cAMP HTRF, 30 min; control for the full effect not named in the record | Potency, µM (series often up to 76.9 µM), without a hit: at the top dose activity change, negative = inhibition, hits mostly inhibitors | hit rate 0.4% among 340,000; active = falling curve of any shape with a large fitted effect; inconclusive = falling curve, mostly with a smaller effect; inactive = flat or rising curve; cell line not stated here;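 note: intracellular cAMP measured with PDE inhibitor Ro 20-1724 present during compound exposure; potency is the fitted concentration of half-maximal effect; % is set by controls: 0 for no effect and ±100 for the full control effect; nearly all actives have a fitted effect of over 65% in size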
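Cells, 2000/well, grown 16–24 h in DMEM 10% FBS with 0.5 mg/ml G418, then compounds plus […] (300 uM addition stock), 30 min at 37C. cAMP read by HTRF (cAMP-d2 and anti-cAMP antibody-K in lysis buffer) after 30 min RT.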
Sfp PPTase inh = qHTS Assay for Inhibitors of Bacillus subtilis Sfp phosphopantetheinyl transferase (PPTase); 4'-phosphopantetheinyl transferase ffp (Bacillus subtilis), Q9F4F7; Biochemical Sfp PPTase activity, qHTS; Potency, µM, for the others: max response, negative = inhibition, most hits filed as inhibitors; hit rate 3.5% among 310,000; active = well fitted inhibition curve with a large enough effect; inconclusive = small, poorly fitted or top-dose-only effect, or another doubt; inactive = no such curve, though single readings can be large or run the other way;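 note: the enzyme is Sfp with the accession as filed and its product quenches rhodamine fluorescence; potency is the fitted concentration of half-maximal effect; 0% = enzyme reaction without inhibitor and -100% = no enzyme wells; top concentration of the series not given in the record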
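Sfp 15 nM + cpd, 15 min RT; start w/ rhodamine-CoA 5 uM, BHQ-2-YbbR 12.5 uM (final); 50 mM Hepes pH 7.6, 10 mM MgCl2, 0.01% NP-40, 0.01% BSA; read 525/598 nm at 0 and 30 min.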
TRPV1 potentiator = HTS Assay for Compounds that Act as Potentiators of the Vanilloid Receptor 1; Transient receptor potential cation channel subfamily V member 1 (Homo sapiens), Q8NER1; TRPV1-expressing cells, Fluo-8 calcium influx, capsaicin EC20 potentiation; host cell line not named in the record; control for the full effect not named in the record; potentiation, % at 8.33 µM; hit rate 0.02% among 320,000; AID 540277, 2011; active means potentiation above 80%; inconclusive means 30% to 80%; inactive means below 30%; note: 0% is about no effect
Target sequence (Q8NER1 whole entry, looked up): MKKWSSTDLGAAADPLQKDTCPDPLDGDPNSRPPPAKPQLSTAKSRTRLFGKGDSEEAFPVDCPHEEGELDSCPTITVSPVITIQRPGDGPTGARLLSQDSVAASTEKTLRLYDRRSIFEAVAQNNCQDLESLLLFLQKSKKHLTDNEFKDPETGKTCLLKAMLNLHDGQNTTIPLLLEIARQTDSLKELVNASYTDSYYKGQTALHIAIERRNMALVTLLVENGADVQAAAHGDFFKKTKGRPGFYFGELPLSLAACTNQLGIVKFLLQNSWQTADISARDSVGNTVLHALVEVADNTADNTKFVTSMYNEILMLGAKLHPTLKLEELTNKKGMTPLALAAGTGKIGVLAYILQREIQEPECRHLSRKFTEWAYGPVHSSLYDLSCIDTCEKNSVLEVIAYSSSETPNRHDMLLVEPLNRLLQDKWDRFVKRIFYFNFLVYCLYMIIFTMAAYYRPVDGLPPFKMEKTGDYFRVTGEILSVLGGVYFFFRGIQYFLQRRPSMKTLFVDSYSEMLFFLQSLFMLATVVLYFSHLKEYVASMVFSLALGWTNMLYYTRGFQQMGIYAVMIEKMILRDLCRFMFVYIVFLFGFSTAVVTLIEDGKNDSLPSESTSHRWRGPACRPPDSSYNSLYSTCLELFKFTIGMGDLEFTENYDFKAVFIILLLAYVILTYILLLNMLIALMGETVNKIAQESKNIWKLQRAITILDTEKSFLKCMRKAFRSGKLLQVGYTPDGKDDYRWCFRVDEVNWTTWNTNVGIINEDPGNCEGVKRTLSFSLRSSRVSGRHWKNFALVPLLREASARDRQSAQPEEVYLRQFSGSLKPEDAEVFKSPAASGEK
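Cells expressing TRPV1 were dye-loaded with Fluo-8 and read kinetically: 10 s baseline, 3 min after compound (agonist portion), then 2 min after EC20 capsaicin (allosteric enhancer portion). Calcium-bound dye fluorescence at 480/520 nm.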
Menin MLL FP FL = qHTS Assay for Inhibitors Targeting the Menin-MLL Interaction in MLL Related Leukemias: Competition With Fluorescein Labeled MLL-derived Peptide; FP activity change, % at 61.4 µM; Fluorescence polarization, fluorescein-MLL peptide displacement from menin; AID 1766, 2009; 290,000 tested, under 10 active; inconclusive = falling polarisation curve, or a change in total fluorescence; inactive = total fluorescence flat and polarisation flat or rising; no compound was filed as active; the % refers to the polarisation; negative = inhibition;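 note: % of control where 0% means no effect; inhibitors lower the polarisation; unlabelled MLL peptide was the positive control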
* marks the source's active call; other numbers are inactive results; ? = inconclusive; . = no result given; & = joins results of further samples; ! = not active in a repeat; [ ] = remark or other dose. Some of the compounds tested, so the mix of outcomes need not match the whole.

SMILES | gsp ag | ClpP mod | CtBP-E1A blk | gsp antagonist | Sfp PPTase inh | TRPV1 potentiator | Menin MLL FP FL
COc1cc([C@H]2Oc3cc([C@H]4Oc5cc(O)cc(O)c5C(=O)[C@@H]4O)ccc3O[C@@H]2CO)ccc1O | . | -6.7% | -22.8 | ? | 18.2%&20.6% | 7.9 | -0.5&9.9
COC(=O)C1=CO[C@@H](OC2OC(CO)C(O)C(O)C2O)[C@@H]2[C@@H](C)[C@@H](O)C[C@H]12 (stereo partly specified) | . | -4.8% | -18.6 | 7.8% | . | . | .
Nc1c2c(nc3ccccc13)CCCC2O (stereo unspecified) | . | -13.1% | 6.6 | 3.0% | -5.5%&4.7% | . | 3.8&-1.2&1.4
CCn1cc(C(=O)O)c(=O)c2cc(F)c(N3CCNCC3)nc21 | . | -11.1% | 0.0 | 3.1% | 9.5%&7.7% | . | -0.7
Nc1ncnc2nc[nH]c12 | . | -0.7%&1.4%&-10.4% | 4.5&3.0&-11.1 | 4.4%&-10.8%&-0.5% | 3.1%&21.5% | -0.1&5.9 | 4.9&-3.1
COc1ccc(/C=N/NC(=O)c2ccncc2)cc1OC | -19.5% | -2.4% | 0.0 | -12.4% | 6.8%&9.8% | 6.2 | 2.5
Cc1cc(C)cc(OCC2CNC(=O)O2)c1 (stereo unspecified) | 31.4% | -1.1% | -9.0 | . | 9.4% | . | -2.0
CNc1c2c(nn1C)CCCC2 | 15.5% | 2.6%&1.3% | 0.0&1.0 | -14.0%&0.8% | -1.6%&13.7%&14.1% | -11.4&-2.4 | -4.1&3.4&4.3
C[C@@H]1C[C@H]2[C@@H]3C[C@H](F)C4=CC(=O)C=C[C@]4(C)[C@@]3(F)[C@@H](O)C[C@]2(C)[C@@]1(O)C(=O)COC(=O)C(C)(C)C | . | 2.6% | -13.2 | -6.7% | 9.0% | -1.0 | -1.9
CN(C)CCOc1ccccc1Cc1ccccc1 | . | -2.2% | -17.4 | -1.1% | -21.1%&-0.2% | -8.4 | 2.7&-0.6
CC(=O)O[C@@]12CO[C@@H]1C[C@H](O)[C@@]1(C)C(=O)[C@H](O)C3=C(C)[C@@H](OC(=O)C(O)[C@@H](NC(=O)OC(C)(C)C)c4ccccc4)C[C@@](O)([C@@H](OC(=O)c4ccccc4)[C@H]21)C3(C)C (stereo partly specified) | . | 2.1% | . | . | 6.31µM* | . | 3.1
CC[C@]1(O)C[C@@H]2CN(CCc3c([nH]c4ccccc34)[C@@](C(=O)OC)(c3cc4c(cc3OC)N(C)[C@H]3[C@@](O)(C(=O)OC)[C@H](OC(C)=O)[C@]5(CC)C=CCN6CC[C@]43[C@@H]65)C2)C1 | . | -3.0% | -2.5 | 1.9% | -9.2% | 2.2 | ?
O=C(O)CNC(=O)c1ccccc1 | . | 1.7% | 6.9 | -5.6% | 19.1% | -3.7 | 0.6
CC(C)(CO)C(O)C(=O)NCCCO (stereo unspecified) | . | 1.5% | -4.0 | 0.4% | . | -4.9 | .
COc1c(O)cc2c(c1O)[C@@H]1O[C@H](CO)[C@@H](O)[C@H](O)C1OC2=O (stereo partly specified) | -98.9%[inhibitor] | -0.2% | -3.3 | 12.7% | . | -5.7 | .
O=C(O)/C=C/c1ccc(O)cc1 | . | -17.7% | -21.7 | -12.1% | . | . | .
COc1c(O)cc2c(c1O)[C@@H]1OC(CO)C(O)C(O)[C@H]1OC2=O (stereo partly specified) | . | 0.5% | -6.5 | -4.9% | . | . | .
CCCCOc1ccc(CC(=O)NO)cc1 | . | -0.3%&1.2% | 4.8 | 9.8% | -2.0%&-11.6%&-16.1% | 7.8 | 1.4
CCOC(=O)NNc1nncc2ccccc12 | . | 1.5% | -1.8 | -0.1% | 35.5µM*! | 0.6 | -4.8
COc1ccc(/C=C/C(=O)O)cc1 | . | -6.3% | 0.7 | -6.0% | -0.3%&18.9% | . | -27.4&-3.1
O=C1Cc2c([nH]c3ccc([N+](=O)[O-])cc23)-c2ccccc2N1 | 3.3% | -2.1% | 6.7 | 2.0% | . | . | .
Cc1[nH]c2ccccc2c1/C=N/NC(N)=S | 22.6% | . | -11.7 | -8.4% | -4.5% | -11.9 | 2.3
O=C(Nc1ccc(C(=O)O)c(O)c1)c1ccccc1 | 17.2%[15.4 µM] | . | -4.5 | 9.6% | -5.6%&12.6% | 2.9 | -8.9&-8.4
COC(c1ccccc1)(c1ccccc1)C(Oc1nc(C)cc(C)n1)C(=O)O (stereo unspecified) | 1.4%[15.4 µM] | 0.2% | 4.1 | 11.9% | 16.9%&19.9% | -5.3 | 0.5&-1.6
NNC(=O)CP(=O)(c1ccccc1)c1ccccc1 | . | 2.1% | 0.2 | -1.9% | 1.4% | 9.8 | -2.1

An excerpt from above in order of the gsp ag value, smallest number first:
structure | gsp ag
O=C1Cc2c([nH]c3ccc([N+](=O)[O-])cc23)-c2ccccc2N1 | 3.3%
CNc1c2c(nn1C)CCCC2 | 15.5%
Cc1[nH]c2ccccc2c1/C=N/NC(N)=S | 22.6%

Remaining list, next part
SMILES | gsp ag | ClpP mod | CtBP-E1A blk | gsp antagonist | Sfp PPTase inh | TRPV1 potentiator | Menin MLL FP FL
NC(N)=NC(=O)Cc1c(Cl)cccc1Cl | . | 0.6% | -1.0 | 2.5% | 89.1µM*! | 10.8 | ?
COc1ccc(CN2CCN(C(c3ccc(F)cc3)c3ccc(F)cc3)CC2)c(OC)c1OC | . | 0.5% | -21.9 | ? | ? | . | -3.7
O=c1cc(-c2ccc(O)cc2)oc2cc(O[C@@H]3O[C@H](CO)[C@@H](O)[C@H](O)[C@H]3O[C@@H]3OC[C@](O)(CO)[C@H]3O)cc(O)c12 | . | 1.2% | 3.3 | 3.1% | -6.5% | 5.1 | 1.5
CCCCC1C(=O)N(c2ccccc2)N(c2ccccc2)C1=O | . | -0.5% | -10.5 | -5.7% | ? | -5.1 | 7.3&12.8&-2.6&11.1&3.2
CCCCCCCCCCCCCC[N+](C)(C)Cc1ccccc1 | . | 2.3% | . | . | 39.8µM* | . | -1.1
COc1ccc2nc(NC(=O)Nc3ccccc3)sc2c1 | . | -2.9% | -4.8 | -1.7% | 21.4%&12.4% | -18.2 | -1.2&4.9
Cc1cccc(C)c1NC(=O)C1CCCCN1C (stereo unspecified) | . | -0.8% | -1.7 | -2.6% | 7.6%&11.6% | -8.1 | 3.5&2.1
COc1ccc2ccc(=O)oc2c1 | . | 4.5% | 9.4 | -0.9% | 7.6%&8.6% | 10.0 | 0.1&-0.1
CCCCCCc1ccc(O)cc1O | . | . | . | . | 7.3%&-1.4% | 29.4 | 2.1&-1.9
Cn1c(=O)c2c(ncn2CCO)n(C)c1=O | . | 2.2% | 3.9 | 1.1% | 22.3%&17.0%&7.7%&17.3% | 12.2 | -2.1
CCCOC(=O)c1ccc(O)cc1 | -24.3% | -2.0% | 7.4 | 5.4% | -0.7% | -7.3 | -2.2
CC(=O)Nc1ccccc1 | . | -1.5% | 7.2 | 2.4% | -7.6%&18.0% | . | -1.3&-2.4
COc1ccccc1OCCNCC(O)COc1cccc2[nH]c3ccccc3c12 (stereo unspecified) | . | . | . | . | 50.1µM*! | 12.8&7.4 | -0.9&-0.4&-2.2&-2.5
C=C1c2cccc(O)c2C(O)=C2C(=O)[C@]3(O)C(O)=C(C(N)=O)C(=O)[C@@H](N(C)C)[C@@H]3[C@@H](O)[C@H]12 | . | -0.6% | ? | 2.1% | 35.5µM* | 20.5 | -0.2

Of the compounds above, six have a COOH group.
SMILES | gsp ag | ClpP mod | CtBP-E1A blk | gsp antagonist | Sfp PPTase inh | TRPV1 potentiator | Menin MLL FP FL
CCn1cc(C(=O)O)c(=O)c2cc(F)c(N3CCNCC3)nc21 | . | -11.1% | 0.0 | 3.1% | 9.5%&7.7% | . | -0.7
O=C(O)CNC(=O)c1ccccc1 | . | 1.7% | 6.9 | -5.6% | 19.1% | -3.7 | 0.6
O=C(O)/C=C/c1ccc(O)cc1 | . | -17.7% | -21.7 | -12.1% | . | . | .
COc1ccc(/C=C/C(=O)O)cc1 | . | -6.3% | 0.7 | -6.0% | -0.3%&18.9% | . | -27.4&-3.1
O=C(Nc1ccc(C(=O)O)c(O)c1)c1ccccc1 | 17.2%[15.4 µM] | . | -4.5 | 9.6% | -5.6%&12.6% | 2.9 | -8.9&-8.4
COC(c1ccccc1)(c1ccccc1)C(Oc1nc(C)cc(C)n1)C(=O)O (stereo unspecified) | 1.4%[15.4 µM] | 0.2% | 4.1 | 11.9% | 16.9%&19.9% | -5.3 | 0.5&-1.6
